D2 potentiator = Beta-Arrestin HTS for Positive Allosteric Modulators of the Human D2 Dopamine Receptor: Potentiators; D(2) dopamine receptor (Homo sapiens), P14416; DiscoveRx D2 beta-arrestin cells, luminescence, 90 min; 100% = 57 uM dopamine signal; potentiation, % (no concentration beside the values); actives 0.23% (n = 360,000); active = potentiation of 50% or more; inconclusive = 30% to 50%; inactive = 30% or less;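 further: compound concentration not given in the record; tested on top of an EC20 dose of dopamine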
Target sequence (P14416 whole entry, looked up): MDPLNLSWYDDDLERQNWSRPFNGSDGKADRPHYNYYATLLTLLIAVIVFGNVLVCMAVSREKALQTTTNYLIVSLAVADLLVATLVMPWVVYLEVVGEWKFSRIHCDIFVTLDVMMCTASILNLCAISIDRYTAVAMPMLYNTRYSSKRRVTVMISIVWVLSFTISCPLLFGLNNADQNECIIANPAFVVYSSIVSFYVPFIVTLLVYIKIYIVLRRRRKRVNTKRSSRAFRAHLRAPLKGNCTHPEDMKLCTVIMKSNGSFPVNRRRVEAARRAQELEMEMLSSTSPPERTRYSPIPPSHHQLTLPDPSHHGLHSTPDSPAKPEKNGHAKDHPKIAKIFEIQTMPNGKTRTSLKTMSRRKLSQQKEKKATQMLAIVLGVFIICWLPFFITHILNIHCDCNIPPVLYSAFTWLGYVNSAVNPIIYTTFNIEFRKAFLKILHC
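PathHunter D2 cells, attached overnight at 37 deg C, received compound in DMSO plus dopamine at EC20 (50 nM final) for 90 min at 37 deg C. Beta-arrestin recruitment was read as luminescence after 1 h with detection reagent at ambient temperature.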
TRPML1 ag = qHTS for Agonists of the Human Mucolipin Transient Receptor Potential 1 (TRPML1); Mucolipin-1 (Homo sapiens), Q9GZU1; TRPML1-expressing cells, Ca2+ dye fluorescence, FDSS; host cell line not named in the record; reference of the full effect not given here; activation, % (test concentration not listed); actives 0.12% (n = 410,000); in the data active = activation above about 50%; inconclusive = about 30% to 50%; inactive = below about 30%; further: 0% is about no effect; the text of the record puts the active cut at 80%
Target sequence (Q9GZU1 whole entry, looked up): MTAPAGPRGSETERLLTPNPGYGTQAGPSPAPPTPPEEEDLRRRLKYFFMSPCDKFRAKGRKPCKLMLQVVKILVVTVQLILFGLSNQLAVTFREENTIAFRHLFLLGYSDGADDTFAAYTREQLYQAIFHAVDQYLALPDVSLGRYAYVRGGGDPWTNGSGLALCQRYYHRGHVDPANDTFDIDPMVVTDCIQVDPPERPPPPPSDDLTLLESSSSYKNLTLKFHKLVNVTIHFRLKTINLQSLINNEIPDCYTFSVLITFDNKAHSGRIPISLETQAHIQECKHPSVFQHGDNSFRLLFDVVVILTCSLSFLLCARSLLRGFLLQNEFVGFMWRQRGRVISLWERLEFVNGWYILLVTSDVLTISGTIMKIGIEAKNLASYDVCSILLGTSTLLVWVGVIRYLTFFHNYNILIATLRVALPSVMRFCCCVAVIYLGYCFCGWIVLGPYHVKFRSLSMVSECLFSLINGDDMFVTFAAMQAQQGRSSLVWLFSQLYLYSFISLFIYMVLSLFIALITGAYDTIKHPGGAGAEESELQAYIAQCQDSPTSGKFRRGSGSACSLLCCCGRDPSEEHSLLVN
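Calcium fluorescence on an FDSS kinetic reader gave the read-out. Tet-induced TRPML1-DL cells were plated overnight, dye-loaded (Ca8 with quencher, 45-90 min, room temperature, dark), then read 110 s after compound addition, and again 110 s after 4uM final 54-4 (EC80).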
Six1-Eya2 inh = qHTS Assay for Inhibitors of the Six1/Eya2 Interaction. actives 0.56% (n = 360,000). AlphaScreen GST-Six1/His-Eya2 binding, biochemical; hits give low values; control for the full effect not named in the record. activity change, % (concentration not given with the values); in the data active = activity change below about -65%; inconclusive = about -30% to -65%; inactive = above about -30%; further: on the % scale 0 is the no-effect control and ±100 the full control effect
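AlphaScreen with GST-Six1 and His-Eya2 (5X mix: 250 nM and 500 nM), glutathione donor and nickel acceptor beads; buffer 50 mM Tris pH 8.0, 300 mM NaCl, 1 mM TCEP; 1 h at 37 C in the dark.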
PINK1 modulator = A Quantitative High throughput Screen to Identify Chemical Modulators of PINK1 Expression; PINK1 immunofluorescence, high-content cytometry, 24 h; Potency, µM (doses to about 76.6 µM), inactives show top-dose activation (PINK1 increase), actives largely listed as activators; actives 0.2% (n = 410,000); active = well fitted activation curve with a large enough effect; inconclusive = small, poorly fitted or top-dose-only effect; inactive = flat fitted curve, though single readings scatter; cell line not stated here;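 further: potency means the concentration at half of the fitted maximal effect; % of control where 0% means no effect; nearly all actives have a fitted effect of over 65% in size; a mitochondrial uncoupler was the plate control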
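Compound titrations (5 concentrations, 24 h) on a stable cell line; DMSO and CCCP controls. Endpoint: fixed-cell PINK1 immunofluorescence with mitochondrial, cell and nuclear markers, scanned by microplate cytometer.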
TRPML1 blocker = qHTS for Inhibitors of the Human Mucolipin Transient Receptor Potential 1 (TRPML1) | AID 624415, 2012 | Mucolipin-1 (Homo sapiens), Q9GZU1 | activity change, negative = inhibition, % (concentration not given with the values) | TRPML1-inducible cells, Ca2+ dye fluorescence, FDSS; hits give low values; inhibition of EC80 agonist-evoked calcium signal | actives 0.02% (n = 390,000); in the data active means activity change below about -50%; inconclusive means about -30% to -50%; inactive means above about -30%;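 further: stimulus is agonist 54-4 at its EC80 concentration; on the % scale 0 is the no-effect control and ±100 the full control effect; compound concentration not given in the record; the text of the record puts the active cut at -80%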
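Calcium fluorescence in TRPML1-DL cells induced overnight with Tet: a 110 s read after compound pin addition, then a 110 s antagonist read after challenge with 54-4 at 4 uM final (EC80).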
D2 agonist = Beta-Arrestin HTS for Positive Allosteric Modulators of the Human D2 Dopamine Receptor: Agonists; D(2) dopamine receptor (Homo sapiens), P14416; DiscoveRx PathHunter D2 beta-arrestin, luminescence, 90 min; 100% = 57 uM dopamine signal; activation, % (concentration not given with the values); actives 0.084% (n = 360,000); AID 624465, 2012; in the data active = activation above about 40%; inconclusive = about 15% to 40%; inactive = below about 15%; further: compound concentration not given in the record; the text of the record calls up to 30% inactive
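Agonist mode: compounds alone added to overnight-plated D2 PathHunter cells for 90 min at 37 C, with 57 uM final dopamine (EC100) defining full response. Beta-arrestin recruitment detected by chemiluminescent reagent, read after 1 h at ambient temperature.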
Active calls of the source: *; ? = inconclusive; . = not tested or not shown; & = joins results of further samples; [ ] = another dose, or the depositor's remark.

SMILES | D2 potentiator | TRPML1 ag | Six1-Eya2 inh | PINK1 modulator | TRPML1 blocker | D2 agonist
CCOC(=O)C1=C[C@@H](C(C)(C)C)N(S(=O)(=O)c2ccc(C)cc2)[C@H]1c1ccccc1Cl | -4 | 0.7 | -5 | ? | -13 | -1.9
O=C(CSc1nnnn1-c1ccccc1)c1ccc(O)cc1O | -10 | 0.7 | 0 | -0.4% | -12 | -2.7
CC(=O)c1ccc(N2CCN(C(=O)CCC(=O)Nc3ccc4nc(N5CCCCC5)cc(C)c4c3)CC2)cc1 | . | 0.1 | . | 1.1% | 0 | .
Cc1noc(C)c1C(=O)Nc1cc(Cl)ccc1N1CCOCC1 | -5 | -0.4 | 9 | 4.4% | -1 | 1.0
COC(=O)[C@@]1(Cc2ccc(F)cc2)[C@H]2c3cc(C(=O)N4CCCC4)n(Cc4ccc(S(C)(=O)=O)cc4)c3C[C@H]2CN1C(=O)c1ccccc1 | . | 3.8 | -19 | -0.1% | . | .
Cn1ccnc1CN1CCCCC1C(=O)Nc1ccc(Oc2cccnc2)cc1 (configuration not stated) | -11 | -0.4 | 0 | 4.5% | 49 | 1.9
CC(C)c1cc(C(=O)N2CCCC(N3CCN(c4ccc(F)cc4)CC3)C2)no1 (configuration not stated) | -2 | -1.0 | -1 | 0.9% | -6 | 1.3
CCOc1ccccc1OCC(O)CNC (configuration not stated) | -11 | -0.1 | 1 | 1.0%[38.3 µM] | 8 | -1.4
CCC(=O)N1CCCC(C)(C(=O)NS(=O)(=O)c2cccs2)C1 (configuration not stated) | -6 | -0.1 | 10 | 0.8% | -19 | -2.6
O=C(NNC1=NS(=O)(=O)c2ccccc21)c1ccccc1 | -12 | . | 4 | 15% | . | -5.7
CCn1c(CC(=O)Nc2ccccc2F)nnc1SCC(=O)N1CCN(c2ccccc2)CC1 | -3 | -1.5 | 10 | 0.9% | -4 | 0.1
COc1ccc(NC(=O)CSc2nc3sc4c(c3c(=O)n2-c2ccc(OC)cc2)CCN(C)C4)cc1 | -11 | -0.2 | -2 | 3.9% | 4 | -5.8
O=C(Nc1cccc(Cl)c1Cl)c1ccncc1 | 4 | -0.1 | -1 | 0.0% | 2 | -2.8
COc1cc2c(C#Cc3cccnc3)c(-c3ccsc3)oc(=O)c2cc1OC | 8 | -0.3 | -3 | -0.4% | 9 | -1.6
O=C(OCC(=O)N1CCN(C(=O)c2ccco2)CC1)c1ccccc1OCc1ccc(Cl)cc1 | -21 | -0.1 | -6 | 0.3% | 14 | -1.3
Cc1cc(CC(=O)O)c(C)cc1CC(=O)O | -11 | -0.2 | 3 | 0.9% | -7 | -1.7
O=C1c2cccc3c(N4CCCCC4)ccc(c23)C(=O)N1CCO | -7 | ? | 15 | 0.7% | -13 | 1.5
O=C(NC1CCCCC1)N1CCN(C(c2ccccc2)c2ccccc2)CC1 | -11 | -0.3 | -2 | 0.8%[38.3 µM] | -5 | -2.1
CCCn1nc(C(=O)Nc2nc3ccccc3[nH]2)c2ccccc2c1=O | -4 | -0.2 | -6 | 4.9% | -9 | -5.8
COc1ccc(C2(C)NC(=O)N(CC(=O)Nc3ccc4ccccc4c3)C2=O)cc1OC (configuration not stated) | -66 | 0.5 | -2 | 0.4% | 2 | -19
CC(CNC(=O)CCc1nnc(CCC2CCCCC2)o1)c1ccccc1 (configuration not stated) | -8 | -0.7 | 2 | 12% | 3 | -0.2
CCCC(=O)N1CCC1(C)C(=O)Nc1cc(OC)ccc1OC (configuration not stated) | 1 | -1.0 | 5 | 0.4% | . | -6.3
CCN(CC)CCCn1c(C)cc2c(c1=O)C(c1ccc(OC)c(OC)c1OC)C(C#N)=C(N)O2 (configuration not stated) | 1 | -0.2 | 3 | -0.9% | 1 | -4.3
COc1ccc(-c2nc(-c3cccc(C)c3)no2)cc1OC | 15 | 2.2 | 2 | 8.3%[38.3 µM] | 25 | -0.1
COc1cccc(N2CCN(C(=O)c3cccn3-c3nnc(N4CCCCC4)s3)CC2)c1 | . | 1.7 | . | -1.4% | 2 | .
N#CCCN(C(=O)COC(=O)Cc1ccc(Br)cc1)c1ccccc1 | -2 | 0.0 | 2 | 7.2% | 22 | -3.8
O=C(O)c1ccccc1C(=O)Nc1ccc(Nc2ccc([N+](=O)[O-])cc2[N+](=O)[O-])cc1 | 1 | -0.4 | -23 | 2.1% | -4 | 4.9
COc1ccc(-c2cc(C(F)(F)F)nc(SCC(N)=O)n2)cc1 | 2 | 0.4 | 1 | . | 2 | 0.8
CN(C)C(=O)c1ccc2c(c1[N+](=O)[O-])C(=O)c1ccccc1C2=O | 68* | 0.7 | -21 | 0.9% | 14 | ?
Fc1ccc(NC(=S)N2CCc3ccccc32)cc1 | 22 | . | 3 | 0.9% | . | 2.9
Cc1cc(NC(=O)Nc2cc(Cl)sc2Cl)no1 | -6 | 0.8 | 5 | 0.4% | 10 | -3.3
COc1ccc(CCNC(=S)N2CCC(Cc3ccccc3)CC2)cc1OC | -7 | -0.7 | 0 | 1.1% | -13 | -7.3
CC1(c2ccncc2)Nc2ccccc2-c2nc3ccccc3n21 (configuration not stated) | -3 | -0.6 | -3 | -2.2%[38.3 µM] | 1 | 2.0
COc1cc([N+](=O)[O-])cc(CN2CCCCC2)c1O | -5 | 0.7 | -1 | ? | 0 | -2.9
CCC1NC(=O)c2cccnc2-n2c1nc1ccc(OC)cc1c2=O (configuration not stated) | -2 | -0.6 | -6 | -0.8% | 4 | -1.6
CCC(C)N1CC(C(=O)O)CC1=O (configuration not stated) | -2 | 0.9 | -4 | . | -8 | -1.8
Cc1ccc(S(=O)(=O)Cc2ccc(C(=O)N3CCC(C(N)=O)CC3)o2)cc1 | -3 | -0.1 | 7 | -1.7% | 2 | 0.4
CC(=O)Nc1nonc1-c1nnc(SCC(=O)Nc2cccc(F)c2)n1-c1ccccc1 | . | -0.8 | . | 2.0% | 4 | .
c1ccc(Cc2ccc(OCCn3cncn3)cc2)cc1 | 19 | -0.7 | -1 | -0.9% | -11 | -1.7
CCCSc1nc2sc3c(c2c(=O)n1-c1ccc(C)cc1)CCCC3 | . | 3.1 | . | -0.6% | -9 | .
O=C(OCN1C(=O)c2ccccc2C1=O)c1ccc(Cl)nc1 | -4 | -0.1 | 11 | 1.3% | 17 | -6.2
COc1ccc(NC(=O)CN(C)C(=O)c2ccc(OCc3ccccc3)c(OC)c2)cc1 | ? | -1.1 | 0 | 1.1% | 3 | 5.4
O=C(CN1C(=O)C2C3C=CC(C3)C2C1=O)Nc1nc2ccccc2[nH]1 (configuration not stated) | -11 | 0.1 | -3 | -1.0% | -8 | -0.8
COc1ccc(Br)cc1C1Nc2cccc3cccc(c23)N1 | 4 | 3.8 | -13 | -2.0% | 9 | 2.2
COc1ccc(C2C3C(C)=NN=C3CC(C)(O)C2C(C)=O)cc1 (configuration not stated) | 13 | 1.5 | 5 | 0.6% | 9 | 2.0
Cc1nc(NC(=O)COC(=O)C(NC(=O)c2ccco2)C(C)C)c(Cl)cc1Cl (configuration not stated) | -5 | -0.9 | -2 | -2.0% | 4 | -1.2
COC(=O)c1ccc(Cl)c(NC(=O)CN(c2ccc(OC)c(OC)c2)S(C)(=O)=O)c1 | -2 | 0.6 | 4 | 2.7% | 0 | 0.3
CCOC(=O)c1cc(NC(=O)Nc2cc(C)ccn2)c(C)nc1C | -4 | 0.0 | -17 | 2.1% | -8 | -4.0
CC1C(=O)Nc2ccc(S(=O)(=O)N3CCN(c4cccc(C(F)(F)F)c4)CC3)cc2NC1=O (configuration not stated) | -4 | 0.5 | -3 | 3.0% | 40 | 13
O=C(O)COc1ccc(C=C2SC(=S)N(c3ccccc3)C2=O)cc1 | -7 | 0.3 | -15 | -1.7% | -2 | -1.9

(next part)
SMILES | D2 potentiator | TRPML1 ag | Six1-Eya2 inh | PINK1 modulator | TRPML1 blocker | D2 agonist
COc1cccc(C2C(C(=O)Nc3cccnc3)=C(C)Nc3nc(SCc4ccccc4)nn32)c1 (configuration not stated) | . | -0.1 | . | 2.3% | -8 | .
O=C(NNC(=O)C1CCN(C(=O)Nc2ccccc2)CC1)c1ccc(F)cc1 | -3 | 0.8 | -1 | 0.9% | 6 | 4.0
Cc1ccc(NC(=O)CSc2nc(-c3ccco3)cc(C(F)(F)F)n2)cc1C | -10 | 1.2&1.3 | 5 | ? | -14&1 | -1.1
Cc1cccc(C)c1OCC(=O)Nc1ncn[nH]1 | -6 | -0.3&1.1 | -2 | 2.5%[38.3 µM] | 5&3 | -1.2
CC(=O)Cc1cc(O)c2ccccc2c1OC(=O)c1ccccc1 | 13 | 0.2 | -12 | 6.8% | 6 | 6.2
Cc1ccc(-c2ncns2)cc1 | 1 | 0.0 | -7 | 0.0% | 8 | 5.8
Cc1ccc(C(=O)NCC(c2ccco2)N2CCc3ccccc32)cc1C (configuration not stated) | -31 | -0.1 | -30 | 2.2% | 11 | -7.3
O=c1c(C=NCc2ccccc2)c(NCc2ccccc2)nc2ccccn12 | -23 | 0.2 | -4 | 0.6% | -5 | 0.7
COc1ccccc1CC(NC(C)=O)C(=O)NC1CCN(C(=O)c2cccc(Cl)c2)CC1 (configuration not stated) | -13 | 0.3 | -30 | -0.4% | -5 | -3.3
O=C(O)CCC(=O)N1CCCC1 | -5 | 0.3 | 2 | -1.2% | -6 | 3.3
CC(=O)/C(=C(/O)c1ccccc1)c1nc2ccccc2[nH]1 | 5 | -0.1 | 5 | 2.3% | 17 | -6.2
O=C(Cc1ccccc1F)NNC(=O)c1ccncc1 | -12 | -0.2 | -10 | 0.1% | -5 | -1.3

Shown in CSV form: entries from further up
structure,D2 potentiator,TRPML1 ag,Six1-Eya2 inh,PINK1 modulator,TRPML1 blocker,D2 agonist
CC(=O)/C(=C(/O)c1ccccc1)c1nc2ccccc2[nH]1,5,-0.1,5,2.3%,17,-6.2
Cc1ccc(-c2ncns2)cc1,1,0.0,-7,0.0%,8,5.8

Ordered by molar mass (largest number first): part of the list above
SMILES | D2 potentiator | TRPML1 ag | Six1-Eya2 inh | PINK1 modulator | TRPML1 blocker | D2 agonist
Cc1ccc(C(=O)NCC(c2ccco2)N2CCc3ccccc32)cc1C (configuration not stated) | -31 | -0.1 | -30 | 2.2% | 11 | -7.3
O=C(Cc1ccccc1F)NNC(=O)c1ccncc1 | -12 | -0.2 | -10 | 0.1% | -5 | -1.3
Cc1ccc(-c2ncns2)cc1 | 1 | 0.0 | -7 | 0.0% | 8 | 5.8
O=C(O)CCC(=O)N1CCCC1 | -5 | 0.3 | 2 | -1.2% | -6 | 3.3

Assay outcomes as filed in PubChem BioAssay.
